# Screening results (PubChem)
# VACV E9 pol inh = blocks vaccinia virus processive DNA synthesis; in vitro processive DNA synthesis, absorbance read-out; stronger effect = lower value; some inactives read as strong as hits; normalized absorbance, % (no concentration beside the values); 0.94% of 46,000 active; AID 493162;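 active = replicate mean up to 90% and picked by the depositor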;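 also: 100% = median of the test wells of a plate; 100 nL library stock went into each well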
# Starred values were filed as active, the others as inactive; & = joins results of further samples. This is a subset; rates above refer to the full screens.
SMILES,VACV E9 pol inh
Cc1cccc(C)c1Nc1c(-c2cc(Br)ccc2O)nc2nc[nH]n12,100
O=C(CSc1ncccn1)NC1CCCCCC1,106
COC(=O)c1ccccc1-n1c(N)c(C#N)c(N)c(C#N)c1=S,100
C=CCn1c(=NC(=O)c2cccs2)sc2cc(S(N)(=O)=O)ccc21,106
O=C(O)CCC(=O)Nc1ccc(CN2CCCC2)cc1,96
O=C(COc1cccc2c1CCN(Cc1cccnc1)C2=O)Nc1ccccc1,96
CCN1C(=O)c2ccccc2Sc2ccc(NC(=O)N3CCCCC3)cc21,100
COC(=O)c1ccc(NC(=O)CC2C(=O)N(c3ccc(F)cc3)C(=O)N2C2CCCC2)cc1 (centres undefined),98
Cc1ccc2c(c1)C(c1ccc(F)cc1)N(C(=O)COc1ccccc1)CC(=O)N2 (centres undefined),105
O=C1/C(=C/c2ccccc2)CCCc2ccccc21,98
CCOc1ccc(NC(=O)CSc2nc3ccc(N4C(=O)c5ccccc5C4=O)cc3s2)cc1,100
CCOC(=O)c1cccc(C(=O)Nc2nc3ccc(OC)cc3s2)n1,100
COC(=O)c1c2c(n3ccc(C)cc13)C(=O)c1ccccc1C2=O,96
CSC1=NC(=O)/C(=C\c2cccc3ccccc23)S1,73*
N#C/C(C(N)=O)=C1\Oc2c(cc(O)cc2-c2ccccc2)S1,99
O=C(O)c1ccccc1C(=O)NCc1ccccc1Cl,96
O=C(OCCn1ncc2ccccc2c1=O)c1ccc2c(c1)CCO2,107
O=C1CC(c2cccc(F)c2)Sc2nc3ccccc3n21 (centres undefined),114
Cc1nc2ccccc2n1CC(O)COc1ccccc1 (centres undefined),100
CC(=C(CCOP(=O)(O)O)SC(=O)c1ccccc1)N(C=O)Cc1cnc(C)nc1N,96
O=C(Nc1cc(-c2ccc(Cl)cc2)nn1-c1ccc(F)cc1)C1CCC1,100
CC(C)(C)C(=O)CN1C(=O)c2ccccc2C1=O,101
O=C(OCCN1CCOCC1)C(c1ccccc1)c1ccccc1,107
N/N=C/c1ccc(S(=O)(=O)c2ccc(Cl)cc2)cc1,100
Cc1cccc(CSCc2ccc(C(=O)NC3CCCC(C)C3C)o2)c1 (centres undefined),99

# Some of the entries above, reformatted:
mol	VACV E9 pol inh
C=CCn1c(=NC(=O)c2cccs2)sc2cc(S(N)(=O)=O)ccc21	106
O=C(O)CCC(=O)Nc1ccc(CN2CCCC2)cc1	96
O=C(COc1cccc2c1CCN(Cc1cccnc1)C2=O)Nc1ccccc1	96
CCN1C(=O)c2ccccc2Sc2ccc(NC(=O)N3CCCCC3)cc21	100

# Carrying on:
SMILES,VACV E9 pol inh
CCCNC(=O)Cn1c(=O)n(C)c2ccccc21,101
COCCN1C(=O)c2oc3ccccc3c(=O)c2C1c1cccc(O)c1 (centres undefined),78
CCOC(=O)c1cnc(SCC(=O)N(C)c2ccccc2)nc1N,110
COC(=O)c1ccc(CN(C(C)=O)C(=O)Nc2ccc(C(=O)OC)cc2C)cc1,99
CC1CCCN(C(=O)CSc2nnc(-c3ccc(Cl)s3)o2)C1 (centres undefined),101
Cc1sc(NC(=O)CN2CCCC2)c(C#N)c1C,97
O=P(CCNCc1cccnc1)(c1ccccc1)c1ccccc1,100
CCCc1cc(NC(C)c2ccccc2)n2c(nc3ccccc32)c1C#N (centres undefined),100
O=C(NCCSc1ccc(Cl)cc1)Nc1ccccc1,102
O=C(NCc1cccnc1)c1ccc2nc(-c3ccco3)c(-c3ccco3)nc2c1,97
O=C(COc1ncnc2ccccc12)N(Cc1ccccc1)Cc1ccccc1,102
Cc1csc(NC(=O)c2ccccc2)n1,102&98
O=C(c1ccccc1)c1cc2ccccc2o1,99
O=C(O)C1CCCN1C(=O)OCC1c2ccccc2-c2ccccc21 (centres undefined),92
C=CC(=O)N1CCN(C(=O)C=C)CC1,100
CCOC(=O)CNc1ccc(C(=O)O)cc1,100
CCOc1ccc(OCC)c(NC(=O)C2COc3ccccc3O2)c1 (centres undefined),106
CC1=CCC2C(=O)N(c3cccc(C(=O)NCc4ccccc4)c3)C(=O)C2C1 (centres undefined),100
O=C(Nc1ccc(N2CCCCC2)cc1)c1ccc(Cl)cc1,108
CCc1ccc2nc(N3CCC(C(=O)NC4CCCCC4)CC3)sc2c1,110
CCC(=O)Nc1sc2c(c1C(N)=O)CCCC2,100
Cc1cccc(-n2nc3c(c2NC(=O)/C=C\c2ccco2)CSC3)c1C,85
O=C(CSc1nc2ccccc2n1-c1ccccc1)NC1CCCC1,103
OC(CN1CCCC1)c1ccccc1 (centres undefined),105
CCc1ccccc1NC(=O)c1noc2c1CCc1ccccc1-2,101

# Shown with each value named: 4 of the compounds above
structure: CC1=CCC2C(=O)N(c3cccc(C(=O)NCc4ccccc4)c3)C(=O)C2C1 (centres undefined)
  VACV E9 pol inh = 100
structure: O=C(Nc1ccc(N2CCCCC2)cc1)c1ccc(Cl)cc1
  VACV E9 pol inh = 108
structure: CCc1ccc2nc(N3CCC(C(=O)NC4CCCCC4)CC3)sc2c1
  VACV E9 pol inh = 110
structure: CCC(=O)Nc1sc2c(c1C(N)=O)CCCC2
  VACV E9 pol inh = 100

# Another view of 4 compounds above:
O=C(NCc1cccnc1)c1ccc2nc(-c3ccco3)c(-c3ccco3)nc2c1
  VACV E9 pol inh: 97
O=P(CCNCc1cccnc1)(c1ccccc1)c1ccccc1
  VACV E9 pol inh: 100
COCCN1C(=O)c2oc3ccccc3c(=O)c2C1c1cccc(O)c1 (centres undefined)
  VACV E9 pol inh: 78
CCCc1cc(NC(C)c2ccccc2)n2c(nc3ccccc32)c1C#N (centres undefined)
  VACV E9 pol inh: 100

# Additional structures:
SMILES,VACV E9 pol inh
C=CCN1C(=O)/C(=C\c2cn(CCOc3ccccc3OC)c3ccccc23)SC1=S,100
O=C1CCC(C(=O)O)(c2ccccc2)C1 (centres undefined),100
Cc1ccc(-n2c(Cc3cccn3C)nnc2SCC(=O)N2CCN(c3ccccc3)CC2)cc1,98
Cc1cccc(C(=O)OCC(=O)NC2CCCCCC2)c1O,105
O=C(NCc1ccccc1Cl)c1cc2ccccn2n1,101
Cc1ccc(C)c(N2CCN(c3ncnc4nc[nH]c34)CC2)c1,99
COc1ccc(-n2cc(C(=O)N3CCCN(Cc4ccccc4F)C3)c3ccccc3c2=O)cc1,102
CN(C)c1nc2ccccc2n2cnnc12,97
OC(COc1ccccc1)Cn1cnc2ccccc21 (centres undefined),95
O=C1C[C@H](N2C(=O)CCC2=O)C2CO[C@@H]1O2,103
N#C/C(=C\c1ccc(C(F)(F)F)cc1)c1cn(C(=O)C2CCC2)c2ccccc12,93
CC(=O)NC1C(OCCOc2ccc(Cl)cc2C)OC(CO)C(O)C1O (centres undefined),100
O=C(Nc1ccccc1)C(c1ccccc1)c1ccccc1,100
COc1ccc(/C=C2\Oc3cc(OC(=O)c4ccc(F)cc4)ccc3C2=O)cc1,100
CCCCn1c(SCC)nc2sc3c(c2c1=O)CCCC3,100
O=C(COC(=O)C1CCCCC1)c1cccc2ccccc12,92
CC(C)(C)c1ccc(C(=O)N2CCCCCC2=O)cc1,100
CCN(c1ccccc1)C1(O)C(=O)c2ccccc2C1=O,100
Clc1ccc2[nH]c(-c3ccccc3)cc2c1,104
O=C1CCCC(O)=C1C1c2ccccc2OC2CCCC(=O)C21 (centres undefined),100
CCCCn1c(CCNC(=O)C(C)(C)C)nc2ccccc21,102
CCC(=O)c1cc(-c2nc3ccccc3n2C)n(C)c1,76
Cc1ccccc1Nc1ncnc2c1cnn2-c1ccccc1,101
O=C(NCCCn1ccnc1)Nc1ccc(Cl)cc1,100
CCOC(=O)c1c(C)n(-c2ccc(C)cc2)c2ccc(OCC(O)CNCC3CCCO3)cc12 (centres undefined),100

# (cont.)
SMILES,VACV E9 pol inh
O=C1CCC(c2ccccc2)C(=O)C1C(=O)c1ccc(Cl)cc1Cl (centres undefined),104
COC(=O)c1ccc2nc(-c3cccc(N)c3)cn2c1,94
Cn1ccnc1SCC(=O)Nc1ccc2ccccc2c1,102
CCn1c(SCC(=O)c2ccccc2)nnc1-c1ccncc1,100
CCS(=O)(=O)N1CCCC(C(=O)NC2CC2)C1 (centres undefined),110
CC(=O)Oc1cc(OC(C)=O)c2c(-c3ccccc3)cc(=O)oc2c1,99
O=C(CCNS(=O)(=O)c1cccc2nsnc12)N1CCc2ccccc21,103
Cc1ccccc1/C=C1\CN(C)C/C(=C\c2ccccc2C)C1=O,99
CC(=O)Nc1ccc2nc(SCc3c(C)cc(C)cc3C)sc2c1,100
CCCCCCCCCCCCCCCCCCOC[C@H](COP(=O)([O-])OCC[N+](C)(C)C)OC,100
CC(C)NC(=O)C(C)n1cccc1C(=O)c1ccccc1 (centres undefined),104
COc1oc(-c2ccc(F)cc2)nc1C(F)(F)F,108
CCOC(=O)Cc1nc2ccccc2[nH]1,100
CCOC(=O)CSc1nnc(NC(=O)C23CC4CC(CC(C4)C2)C3)s1,101
O=C(Oc1ccccc1-c1cnc2ccccc2n1)c1ccc(F)cc1,100
Cc1cccc(C(=O)Nc2ccc3[nH]c(=O)[nH]c3c2)c1,100
O=C(O)c1ccccc1NCCO,90
CC1=C(C)CS(=Nc2ccccc2)N(S(=O)(=O)c2ccccc2)C1 (centres undefined),100
CC(C)Oc1ccc(C(=O)Nc2sccc2C#N)cc1,99
CCC1CCCCN1C(=O)c1cc(-c2ccc(C)cc2)on1 (centres undefined),104
CN1C2CCC1CC(NC(=O)CSc1ccc(C(C)(C)C)cc1)C2 (centres undefined),93
S=c1[nH]nc(Cc2cccc3ccccc23)o1,100
O=C(CSc1ncn[nH]1)Nc1ccccc1-c1ccccc1,100
Cc1ccc(NC(=O)CSC2=C(C#N)C3(CCCCC3)C(C#N)C(=O)N2)c(C)c1 (centres undefined),94
Fc1cccc(Cl)c1-c1nn[nH]n1,100

# Remaining list, next part.
SMILES,VACV E9 pol inh
CC(C)N(Cc1nc(-c2ccccc2)no1)C(=O)C1CCCCC1,99
Cc1c(C#N)c2nc3c(c(-c4ccccc4)c2n1-c1ccccc1)CCCC3,100
CCOC(=O)c1c(C(=O)OCC)c2n(c1-c1ccccc1)Cc1ccccc1-2,108
Cc1ccc(NC(=O)Cn2nnc(S(=O)(=O)c3ccc(C(C)(C)C)cc3)c2N)c(C)c1,100
CCn1ncc(C2=NOC(C(=O)NCC(C)C)C2)c1C (centres undefined),102
COc1ccc(-c2cc(OC(=O)c3ccccc3)cc3sc(=O)oc23)cc1,101
CN1CCN(C(=O)CN2C(=O)S/C(=C\c3ccccc3F)C2=O)CC1,100
CC(=O)OCc1ccccc1Oc1cccc(Cl)c1,110
C=C(C)C(=O)Oc1cccc(N2C(=O)C3C4C=CC(C4)C3C2=O)c1 (centres undefined),90
CCOC(=O)Cc1csc(Nc2ccc(Cl)cc2)n1,102
CC1C=CCC2C(=O)N(c3cccc(O)c3)C(=O)C12 (centres undefined),100
CC(C)(C)c1ccc(OCCC(=O)Nc2ccc(N3CCOCC3)cc2)cc1,101
O/N=C/c1ccc2ccccc2c1,97
NCC12CC3CC(CC(C3)C1)C2,108
N#Cc1ccccc1NC(=O)COC(=O)c1ccccc1,102
N=C1c2ccccc2CN1c1ccc2c(c1)OCCO2,104
C1=Cc2nonc2C2C=C(c3ccccc3)N=C12 (centres undefined),99
CC1(C)CC(N=Cc2ccccc2O)CC(C)(C)N1,100
O=CN1CCN(C(=O)c2ccccc2)CC1,100
CCOc1ccc(CNC2CCCc3ccccc32)cc1 (centres undefined),100
O=C(c1cccs1)C1C2C(=O)C3OCC(O3)C12 (centres undefined),101
O=C(OCC(=O)N1CCCC1)c1ccco1,91
O=C(O)c1cc(-c2cccs2)nc2ccccc12,91
O=C(NCCc1nnc2ccc(N3CCCC3)nn12)c1ccccc1,96
CC(=O)OCc1ccccc1Sc1ccccc1C(=O)NCc1ccccc1,101

# Later entries.
SMILES,VACV E9 pol inh
Cc1cc(=O)cc(C)n1-c1ccc(O)cc1,100
Cc1ccc2nc(C(C)O)[nH]c2c1 (centres undefined),113
CCOC(=O)c1cncc(C#CCOC(=O)Nc2cc(Cl)cc(Cl)c2)c1,102
Brc1ccc(N=Cc2ccc3c(c2)OCCO3)cc1,105
CN1C(=O)/C(=C(/C#N)C(N)=O)c2ccccc21,100
CC(C)n1cnc2cc(NCc3ccc(Br)cc3)ccc21,102
CCN1CCN(C(=O)CS(=O)Cc2nc(-c3ccccc3)oc2C)CC1 (centres undefined),101
CO/C([O-])=N/c1c[n+](-c2ccc(C)cc2)no1,99
CCC(O)c1ccc2c(=O)c(-c3ccccc3F)coc2c1 (centres undefined),101
O=c1ccccn1CCOc1ccc(Cl)cc1,104
CCN(C(=O)CSc1ncnc2c1sc1ccccc12)c1cccc(C)c1,101
O=C(O)CC(CC(=O)Oc1ccccc1N1CCOCC1)c1ccccc1 (centres undefined),99
N#Cc1ccc(C(N2CCSCC2)N2CCSCC2)cc1,102
Brc1ccc(-c2nn3c(Cc4ccccc4)nnc3s2)o1,101
O=C(Nc1ccc(Br)cc1)C1CC(=O)N(c2ccccc2)C(=Nc2ccccc2)S1 (centres undefined),100
CCOc1ccc(N=C2CSC(=O)N2)cc1,105
CC(C)c1ccc(S(=O)(=O)N2CCOCC2)cc1,100
COc1ccc2nc(NC(=O)CN(c3ccc(C)cc3)S(=O)(=O)c3c(C)noc3C)sc2c1,100
O=C(CN1CCOCC1)N1c2ccccc2Sc2ccccc21,109
COc1cc2c(=O)n(Cc3ccccc3Cl)c(=O)n(CC(=O)N3CC(C)CC(C)C3)c2cc1OC (centres undefined),99
N#CC(C#N)=C(NC12CC3CC(CC(C3)C1)C2)C(F)(F)F,98
O=C(/C=C/c1ccccc1)NCCSc1c[nH]c2ccccc12,99
O=C(CSc1ccc2ccccc2c1)Nc1ncccn1,88
CCOC(=S)NC(=O)c1ccccc1,102
Cc1sc(NC(=O)c2ccc3ncsc3c2)nc1-c1ccccc1,92
Cc1ccc(NC(=O)CSc2nc(-c3ccc4c(c3)OCO4)cn2-c2cccc(Cl)c2)cc1C,101
